Screening results: PubChem BioAssay, National Center for Advancing Translational Sciences (NCATS)
RE007 growth inh – less growth of the S. pombe RE007 Vpr strain; AID 651644; S. pombe RE007 Vpr strain, BacTiter-Glo ATP luminescence, 24 h; control for the full effect not named in the record; Potency, µM (top dose mostly 92.2 µM), without a hit: at the top dose activity change, negative = less growth; 0.21% of 360,000 active; active = well fitted falling curve with a large enough effect; inconclusive = small, poorly fitted or top-dose-only effect; inactive = no such curve, though single readings can be large or run the other way;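 further: on the % scale 0 is the no-effect control and ±100 the full control effect; nearly all actives have a fitted effect of over 50% in size; the assay follows cell death caused by Vpr and the record does not say whether a fall means rescue or toxicity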
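Fission yeast strain RE007, carrying one chromosomally integrated HIV-1 vpr copy, was seeded at OD 0.01 in PMG+AL medium with 23 nL pinned compound. After 24 h at 30 °C and 99% humidity, viability was read by BacTiter-Glo luminescence.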
SARS PLpro yeast – blocks SARS-CoV papain-like protease in a yeast assay; AID 485353; 0.19% of 330,000 active; S. cerevisiae expressing SARS-CoV PLpro, growth rescue; control for the full effect not named in the record; Potency, µM (top dose mostly 32.9 µM), for the others: top-dose activity, positive = growth rescue; active means well fitted rising curve with a large enough effect; inconclusive means small, poorly fitted or top-dose-only effect; inactive means no such curve, though single readings can be large or run the other way; further: 0% is about no effect; nearly all actives have a fitted effect of over 55% in size; growth read by luminescence after 48 h
Lassa entry inh – blocks Lassa virus binding to or entry into cells | Potency, µM (doses to about 37.9 µM), for inactives: at the top dose activity change, negative = inhibition, most hits filed as inhibitors | AID 540256 | 1.2% of 300,000 active | Lassa virus pseudotype entry inhibition, cell reporter; control for the full effect not named in the record; active means well fitted inhibition curve with a large enough effect; inconclusive means small, poorly fitted or top-dose-only effect, or effect the other way; inactive means flat fitted curve, though single readings scatter; tested in HEK293 cells; further: on the % scale 0 is the no-effect control and ±100 the full control effect; nearly all actives have a fitted effect of over 50% in size; luciferase read-out
StopGo reporter – lowers the luciferase signal of an FMDV 2A StopGo reporter | 1.2% of 410,000 active | human cells with a luciferase reporter of 2A StopGo recoding; control for the full effect not named in the record | Potency, µM (highest dose often 57.9 µM), for the others: at the highest dose signal change, negative = less light | AID 1159524; active = well fitted falling curve with a large enough effect; inconclusive = small, poorly fitted or top-dose-only effect; inactive = no such curve, though single readings can be large or run the other way; tested in HEK293T cells; further: on the % scale 0 is the no-effect control and ±100 the full control effect; nearly all actives have a fitted effect of over 45% in size; luciferase light after 4 h
NS1 function inh – influenza NS1 inhibition | S. cerevisiae slowed by influenza A NS1, growth recovery by OD600 | Potency, µM (top dose mostly 46.1 µM), for inactives: top-dose activity, positive = more growth | 0.4% of 270,000 active | AID 2326; active means well fitted rising curve with a large enough effect; inconclusive means small, poorly fitted or top-dose-only effect; inactive means no such curve, though single readings can be large or run the other way; further: nearly all actives have a fitted effect of over 50% in size
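Read-out: OD600 growth recovery of NS1-expressing budding yeast. Cells grown overnight at 30C in -URA glucose medium, washed, resuspended and diluted 1:100 in 2% galactose assay medium, pH 6.0. Same strain lacking NS1 served as positive control.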
Marburg entry inh – Marburg virus entry inhibition. Marburg virus pseudotyped entry inhibition, cell reporter; control for the full effect not named in the record; about a third of the inactives were read at about 46 µM. 1.8% of 300,000 active. AID 540276. Potency, µM (top dose mostly 37.8 µM), for inactives: at the top dose activity change, negative = inhibition, hits mostly inhibitors; active = well fitted inhibition curve with a large enough effect; inconclusive = small, poorly fitted or top-dose-only effect, or effect the other way; inactive = flat fitted curve, though single readings scatter; tested in HEK293 cells; about a fifth of its hits are not listed in these tables; further: on the % scale 0 is the no-effect control and ±100 the full control effect; luciferase read-out
Cruzain inh Det – cruzain (T. cruzi) inhibition with detergent; 0.43% of 200,000 active; P25779; Potency, µM, for inactives: max response, negative = inhibition, most hits filed as inhibitors; purified cruzain, Z-FR-AMC fluorescence, 0.01% Triton;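 further: plate controls were neutral wells for no effect and buffer without enzyme for full effect; nearly all actives have a fitted effect of over 40% in size; top concentration of the series not given in the record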
Target sequence (P25779 123-467 limits assumed): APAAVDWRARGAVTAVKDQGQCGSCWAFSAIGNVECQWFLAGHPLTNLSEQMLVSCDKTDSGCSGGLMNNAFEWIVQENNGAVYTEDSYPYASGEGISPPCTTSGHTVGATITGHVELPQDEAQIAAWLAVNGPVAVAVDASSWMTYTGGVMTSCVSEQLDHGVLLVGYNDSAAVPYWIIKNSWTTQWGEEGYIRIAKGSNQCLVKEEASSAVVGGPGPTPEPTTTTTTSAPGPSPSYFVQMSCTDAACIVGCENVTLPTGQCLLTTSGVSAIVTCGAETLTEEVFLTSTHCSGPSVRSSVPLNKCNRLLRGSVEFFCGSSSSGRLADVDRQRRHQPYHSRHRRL
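Detergent-containing run (0.01% Triton X-100) in acetate buffer pH 5.5 with 5 mM DTT: enzyme at 1.5 nM final, 15 min compound preincubation at room temperature, then 2 uM Z-FR-AMC substrate. Activity taken as 60 s fluorescence increase at 360/450 nm.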
Cruzain noTriton – cruzain (T. cruzi) inhibition without detergent. purified cruzain, Z-FR-AMC fluorescence, no detergent. P25779. Potency, µM, for inactives: max response, negative = inhibition, hits mostly inhibitors. 2.3% of 200,000 active. AID 1476;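 further: plate controls were enzyme without inhibitor for no effect and buffer without enzyme for full effect; nearly all actives have a fitted effect of over 40% in size; top concentration of the series not given in the record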
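Detergent-free condition (0.00005% Triton X-100) in acetate buffer pH 5.5 with DTT. 1.5 nM enzyme and compound were pre-mixed 15 min, then 2 uM Z-FR-AMC substrate added; reaction progress from fluorescence change between first and third reads (60 s).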
Starred values were filed as active, the others as inactive; ? = inconclusive; . = no result given; & = joins results of further samples; [ ] = remark or other dose. Unless noted, the call rests on the fitted dose curve; in most records, active means well fitted curve in the direction sought with a large enough effect; inconclusive means small, poorly fitted or top-dose-only effect, or another doubt; inactive means no such curve, though single readings can be large; an effect the other way counts as inactive or inconclusive. Potency means the concentration at half of the fitted maximal effect.

Every second line gives: RE007 growth inh	SARS PLpro yeast	Lassa entry inh	StopGo reporter	NS1 function inh	Marburg entry inh	Cruzain inh Det	Cruzain noTriton
Cc1ccc(Cl)cc1NC(=O)C1CCCN(c2cnccn2)C1 (centres undefined)
→ -22%	-3%	1%[46.1 µM]	?	-8%	?	-0.6%	-2%
Cc1ccc(C(=O)CC(C(=O)O)n2ccc(C)n2)cc1 (centres undefined)
→ 2%	2%	14%	-15%	-2%	4%	2.7%	6%
COc1ccc(C)cc1NS(=O)(=O)c1ccc2c(c1)CCN2C(C)=O
→ 7%	0%	.	29%	-5%	7%	.	.
Cc1nn(-c2ccccc2)c(N2CCCC2)c1/C=N/NC(=S)Nc1ccc(F)cc1
→ -27%	.	?	-16%	.	?	.	.
CCCCn1c(O)c(C(CC)=NCCN2CCOCC2)c(=O)[nH]c1=O
→ -15%	0%	-11%	5%	3%	?	-2.5%	-1%
COc1ccc(S(=O)(=O)Nc2ccccc2C)cc1
→ 5%	-3%	-15%	34%[activator]	-9%	-9%	6.2%	-6%
COc1nnc(-c2ccccc2)s1
→ 18%	-8%	6%	25%	8%	?	2.5%	10%
Cc1cc(OCC(=O)O)c2cccc(C)c2n1
→ 37%	-2%	2%	-1%	-4%	-9%	2.1%	-8%
Cc1ccc(C)c(NC(=O)CCN2CCN(c3ccccc3F)CC2)c1
→ -6%	1%	.	-18%	-2%	.	.	.
CCOc1ccc(NC(=O)CN2CCc3cc4c(cc3C2)OCCCO4)cc1OCC
→ -2%	1%	.	-10%	7%	.	.	.
CSCCC(N=C(NS(=O)(=O)c1ccccc1)c1ccccc1)C(=O)O (centres undefined)
→ -2%	-1%	-10%	-1%	3%	?	.	.
CCC[n+]1c2ccccc2cc2ccccc21
→ -23%	-2%	?	?	-44%	?	.	.
CCCNC(=O)c1cc(-c2ccc3c(c2)OCO3)on1
→ 50%	-2%	?	0%	-2%	?	.	.
Cc1[nH]nc2c1C(c1ccc(O)cc1)C1=C(CC(C)(C)CC1=O)N2 (centres undefined)
→ 12%	-2%	4%[46.1 µM]	-5%	2%	-2%[46.1 µM]	.	.
COc1ccc(CNC(=O)c2cc3cccc4c3n2CC(C)S4)cc1 (centres undefined)
→ .	.	-6%[46.1 µM]	-7%	.	.	-12%	-7%
CN1CCN(S(=O)(=O)c2cccc(C(=O)Nc3sc4c(c3-c3nc5ccccc5[nH]3)CCCC4)c2)CC1
→ -1%	-23%	1%	25%	?	16µM*	-6.1%	16µM*
COc1cc(NC(=S)N2CCC(C(N)=O)CC2)c(OC)cc1Cl
→ 1%	0%	.	-15%	6%	.	.	.
O=C(O)c1ccc(NC(=O)c2cccc(C(=O)Nc3ccc(C(=O)O)cc3)c2)cc1
→ 9%	-1%	.	-16%	5%	.	.	.
CCN(CC)P(=O)(c1nccn1C)N(CC)CC
→ 16%	-3%	.	12%	1%	.	.	.
Cc1ccc(C)c(-n2ccnc2SCC(=O)O)c1
→ 0%	-8%	0%	-23%	-8%	-2%	1.3%	4%
Cc1ccc(C(=O)COc2ccccc2C(=O)Nc2ccccc2)cc1
→ 5%	1%	?	?	-1%	?	-0.8%	-2%
COc1ccc(C(=O)Nc2ccnn2C2CCN(C(=O)C3CCOC3)CC2)cc1 (centres undefined)
→ 6%	-2%	18%[46.1 µM]	14%	-13%	9%[46.1 µM]	.	.
C#CCOCCOCCOCCNc1nc(N2CCN(C(=O)[C@H]([C@@H](C)CC)n3cc(CCCCN)nn3)CC2)nc(N2CCN(C(=O)[C@H](C)n3cc(CCC(=O)O)nn3)CC2)n1
→ 7%	8%	-3%	-8%	11%	33%	-3.7%	26%
COc1ccccc1CCCNC(=O)C1CCC(=O)N(CCc2cccc(F)c2)C1 (centres undefined)
→ -5%	3%	1%	0%	0%	24%	.	.
Cc1ccc2c(=O)c(C(=O)c3cccc(Cl)c3)cn(CC(=O)NCc3ccccc3)c2n1
→ .	.	-1%[46.1 µM]	-21%	.	.	0.6%	1%
Cc1cc(OCc2nc(-c3cccnc3)no2)c(C)cc1Br
→ 3%	5%	14%	-4%	?	4%	0.4%	-6%
CCCC[C@@H](CNC)NC[C@H](NCCCCC1CCCCC1)C(C)C
→ -20%	0%	.	-8%	-4%	.	.	.
CCCCn1c(N)c(N(CCOC)C(=O)C2CCN(C(=O)c3ccc(F)cc3)CC2)c(=O)[nH]c1=O
→ -13%	-1%	23%	0%	.	15%	.	.
CCc1c(C(C)=O)oc2ccc3c(C)cc(=O)oc3c12
→ 14%	0%	-17%	8%	8%	7%[46.1 µM]	.	.
COc1cccc(NS(=O)(=O)c2ccc3c(c2)[C@H]2C=CC[C@H]2[C@@H](c2ccccc2Cl)N3)c1
→ .	.	?	-9%	.	?	5.5%	11%
COc1ccccc1C(=O)NC(=O)CSc1nncn1C(C)C
→ -6%	-4%	13%	-20%	.	?	.	.
CC(=O)c1ccc(N2CCN(c3nc4c(S(=O)(=O)c5ccc(C)c(C)c5)nnn4c4ccc(Cl)cc34)CC2)cc1
→ .	.	.	0%	.	5%[46.1 µM]	-0.4%	1%
CCOc1ccc(NS(=O)(=O)c2ccc(C(=O)N3CCCC3)cc2)cc1
→ 3%	1%	?	-16%	.	?	.	.
CC(C)(C)c1ccc(OCC(O)CN2CCOCC2)cc1 (centres undefined)
→ 4%	.	5%	11%	.	-16%	.	.
CCc1cccc(C)c1NC(=O)c1cc2ccccc2o1
→ .	.	-6%[46.1 µM]	?	.	.	-3.2%	-5%
Cc1cc(=O)[nH]c(SCC(=O)Nc2ncc(S(=O)(=O)c3ccc([N+](=O)[O-])cc3)s2)n1
→ 5%	-3%	4%[46.1 µM]	-16%	.	-16%[46.1 µM]	.	.
O=C1c2ccccc2C(=O)N1CCCCN(C(=O)c1cc2ccccc2oc1=O)c1ccc(F)cc1F
→ 10%	8%	?	-22%	12%	-33%	-4.8%	-8%
CCn1c2ccccc2c2cc(NC(=O)CNCC3CCCO3)ccc21 (centres undefined)
→ 16%	-1%	8%	-19%	3%	?	.	.
CCCCN(C)C(=O)c1ccc2c(c1)N(Cc1ccc(F)cc1)C(=O)c1ccccc1S2(=O)=O
→ .	.	-13%[46.1 µM]	-7%	.	?	1.3%	?
O=C(CSc1nnnn1C1CCCC1)NCc1ccccc1
→ 1%	2%	-4%	21%	12%	29%	2.1%	-4%
CCOc1ccccc1NC(=O)CSc1nc(=O)n(CCN2CCOCC2)c2c1CCCC2
→ -11%	-5%	-4%	1%	.	25%	.	.
O=C(Cn1cnc2scc(-c3ccccc3)c2c1=O)N1CCOCC1
→ -20%	.	2%	4%	0%	19%	5.2%	9%
Cc1ccc(S(=O)(=O)N2CCN(C(=O)CN(Cc3ccco3)Cc3cccs3)CC2)cc1
→ 2%	.	2%	-11%	.	5%[46.1 µM]	.	.
O=Cc1cn(-c2ccccc2)nc1-c1cc2ccccc2oc1=O
→ -3%	0%	-4%	4%	1%	-10%	-3.1%	-12%
COc1ccc(S(=O)(=O)N2CCCC(C(=O)Nc3ccc(NC(=O)c4ccccn4)cc3)C2)cc1 (centres undefined)
→ -3%	6%	49%[14.3 µM]	3%	-30%	7%	0.5%	-11%
Cc1nn(-c2ccccc2)c2sc(C(=O)c3c(N)n(C)c(=O)n(C)c3=O)cc12
→ 5%	6%	-17%	-11%	11%	-10%	-4.2%	?
CN(C)CC1CC/C(=C\c2ccc(O)cc2)C1=O (centres undefined)
→ 11µM*	.	11µM*	?	.	?	.	.
CN(c1ccc(C(=O)NCCSCc2ccccc2)cc1)S(=O)(=O)c1ccccc1
→ -5%	-1%	?	0%	-85%	1%	1.1%	11%
COc1ccc(N2C(=O)NC(NS(=O)(=O)c3ccc(Cl)cc3)(C(F)(F)F)C2=O)cc1 (centres undefined)
→ 33%	1%	5%	11%&9%	7%	?	1.9%	-5%
COC(=O)C1C(=O)c2c([nH]c(C(=O)OC3CCCC3C)c2C)CC1C (centres undefined)
→ -1%	4%	.	27%	7%	.	-10%	20%
COc1ccc(/C=C/c2onc(C)c2S(=O)(=O)N2CCC(C(=O)N3CCCCCC3)CC2)cc1
→ 10%	6%	?	-20%	14%	?	.	.
COc1cccc(CN2CCc3nc(SCC(=O)Nc4ccccc4)[nH]c(=O)c3C2)c1
→ .	.	0%[46.1 µM]	11%	.	0%[46.1 µM]	-2.4%	0%
CCOc1ccc(NC(=O)CN(c2ccc(OC)cc2)S(C)(=O)=O)cc1
→ 15%	10%	?	48%[activator]	-28%	2%[46.1 µM]	-0.6%	2%
Cc1nn(C(=O)c2ccc(Br)cc2)c(C)c1S(=O)(=O)N1CCOCC1
→ .	.	9%[46.1 µM]	-3%	.	.	0.3%	-5%
COc1ccc(Cl)cc1NC(=O)c1cccc(N2C(=O)C3CC=CCC3C2=O)c1 (centres undefined)
→ 3%	1%	0%	?	6%	-12%	.	.
CCC(C)n1c(=N)c(C#N)cc2c(=O)n3cc(C)ccc3nc21 (centres undefined)
→ 26%	1%	.	3%	7%	.	.	.
CCCc1nc2ccccc2c(=O)n1/N=C/c1ccc(O)cc1
→ -2%	0%	?	?	-8%	?	-0.7%	3%
O=C(Nc1ccccc1C(=O)O)c1cccc(C(=O)Nc2ccccc2C(=O)O)c1
→ 2%	19%	-12%[46.1 µM]	10%	16%	13%[46.1 µM]	.	.
CCc1noc(C)c1C(=O)N1CCN(S(=O)(=O)c2ccc(C(C)C)cc2)CC1
→ 1%	0%	?	-23%	.	-2%[46.1 µM]	.	.
COc1ccccc1CC(=O)Nc1ccc(OC)c(OC)c1
→ 4%	0%	7%	9%	4%	-16%	5.5%	2%
